Compound activity as filed in PubChem BioAssay.
HPGD block = HPGD (human) dehydrogenase inhibition; Potency, µM, without a hit: at the highest dose activity change, negative = inhibition, usual class: inhibitors; 4.3% of 150,000 active; purified HPGD, NADH fluorescence kinetic, PGE2 substrate; active = well fitted inhibition curve with a large enough effect (not every such curve was filed as active); inconclusive = small, poorly fitted or top-dose-only effect, or another doubt; inactive = no such curve, though single readings can be large or run the other way;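 further: top concentration of the series not given in the record; plate controls included wells without enzyme; inactives centre near -10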
Target sequence (P15428 whole entry, looked up): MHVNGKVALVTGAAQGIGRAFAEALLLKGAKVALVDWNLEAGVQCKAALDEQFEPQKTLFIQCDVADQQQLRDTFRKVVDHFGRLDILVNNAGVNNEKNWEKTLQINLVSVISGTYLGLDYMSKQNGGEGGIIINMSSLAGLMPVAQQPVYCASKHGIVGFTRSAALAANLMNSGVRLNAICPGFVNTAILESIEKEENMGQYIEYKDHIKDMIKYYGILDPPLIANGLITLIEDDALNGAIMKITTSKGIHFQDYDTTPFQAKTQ
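NADH formation kinetics: reaction with 30 uM PGE2 and 1 mM NAD+ (final), 20 nM enzyme, Tris-HCl pH 8 with Tween 20, after 15 min compound preincubation at room temperature. Fluorescence change, last versus first of five reads.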
* hit, by the source's call; ? = inconclusive; & = joins results of further samples; ! = not active in a repeat. On the % scale 0 is the no-effect control and ±100 the full control effect; potency means the concentration at half of the fitted maximal effect. Not all compounds are listed; count on the stated rates, not on these rows.

SMILES | HPGD block
COC(=O)[C@H](C)NC(=O)Nc1ccc(OC(F)(F)F)cc1 | -9%
CC1(C)NC(=O)N(CCCCOc2ccc3ccccc3c2Cl)C1=O | -28%
Cc1cccc(NC(=O)c2ccc(S(=O)(=O)C(F)F)cc2)c1C | -12%
CCOC(=O)CSc1nc2ccccc2c(=O)n1C1CCCC1 | -3%
O=c1[nH][nH]c(C(F)(F)F)c1C=Nc1cccc(Cl)c1 | -13%
CCCCOC(=O)C(C#N)c1nc2ccccc2nc1N1CCOCC1 (configuration not stated) | -9%
CC(=O)ON1C(C)(C)CC(OC(=O)c2ccccc2)CC1(C)C | -7%
O=C(N/N=C(\c1ccccc1)c1cccnc1)C(O)(c1ccccc1)c1ccccc1 | -7%
Cc1ccc(N(CC(=O)Nc2ccc(F)c(Cl)c2)S(=O)(=O)c2c(C)noc2C)cc1 | -13%
Cc1ccc(NC(=O)c2cccc(OC(F)F)c2)c(OC(F)F)c1 | -17%
CCOc1ccc(/C=N/OCC(=O)Nc2ccc(OCc3ccccc3)cc2)cc1OC | ?
CCOC(=O)c1cn(CC)c2ccc(S(=O)(=O)N3CC(C)CC(C)C3)cc2c1=O (configuration not stated) | -18%
O=P(O)(CN1CCCCC1)CN1CCCCC1 | 1%
O=c1c2c(nc3c(-c4ccccc4)c[nH]n13)CCC2 | ?
COc1ccc(C(NC(=O)CC(C)C)NC(=O)CC(C)C)cc1OC | -1%
Cc1ccnc(NS(=O)(=O)c2ccc(NC(=O)C34CC5CC(C)(CC(C)(C5)C3)C4)cc2)n1 | -10%
CN(Cc1ccco1)c1cc(-c2ccccc2Cl)ncn1 | -28%
CCOC(=O)N1CCC(N(CCCOC)C(=O)Nc2cccc(OC)c2)CC1 | 0%
CCc1ccc(Nc2nnc(SCC(=O)N(C)CC(=O)Nc3ccccc3CC)s2)cc1 | -17%
CCOC(=O)N1CCN(C(=O)C2CCN(Cc3nc(-c4ccccc4C)oc3C)CC2)CC1 | 0%
COc1ccc(C(F)(F)F)cc1N/C=C\c1nnnn1-c1ccccc1 | ?
CC(NC(=O)OCc1ccccc1)C(=O)NCC(=O)NC(Cc1ccc(OC(C)(C)C)cc1)C(=O)OC(C)(C)C (configuration not stated) | -8%
O=C(CCN1CCCCC1)NCC1OCCc2ccccc21 (configuration not stated) | -6%
COc1ccc(OC)c(-n2c(SC)nnc2-c2c[nH]c3ccccc23)c1 | 18µM*
c1ccc(-c2cc(-c3cc(-c4ccccn4)[nH]n3)n[nH]2)nc1 | -2%
COc1ccc(CCn2nnnc2C(C(C)C)N2CCN(c3ncccn3)CC2)cc1OC (configuration not stated) | -12%
Cc1ccc(C(=O)OCc2ccc3c(c2)OCO3)cc1S(=O)(=O)N1CCCCC1 | -11%
COc1cccc(-c2nnc3n2N=C(C(C)(C)C)CS3)c1 | -15%
COC(=O)c1c(C)n(-c2ccc(C)cc2)c2ccc(O)cc12 | -17%
CCCCn1c(=N)n(CC(O)COc2ccccc2)c2ccccc21 (configuration not stated) | -10%

3 entries from above, arranged by length of the SMILES, highest first.
SMILES | HPGD block
O=C(N/N=C(\c1ccccc1)c1cccnc1)C(O)(c1ccccc1)c1ccccc1 | -7%
CCOc1ccc(/C=N/OCC(=O)Nc2ccc(OCc3ccccc3)cc2)cc1OC | ?
CCOC(=O)N1CCC(N(CCCOC)C(=O)Nc2cccc(OC)c2)CC1 | 0%

(further entries)
SMILES | HPGD block
COc1ccc(/C=N/Nc2ccccc2)cc1Cn1nc(C)c([N+](=O)[O-])c1C | 0%
O=C(Nn1cnnc1)C1Cc2ccccc2CN1S(=O)(=O)c1ccc(F)cc1 (configuration not stated) | -8%
CCN(C(=O)c1c(OC)cccc1OC)c1nnc(-c2cccnc2)s1 | -8%
Cc1ccc(/C=C/C(=O)NC(=S)Nc2ccccc2C(=O)NC2CCCCC2)cc1 | -6%
O=C(CSCc1ccccc1Cl)Nc1c[nH]c(=O)[nH]c1=O | -12%
COCCCNCCOc1ccc(C(C)(C)c2ccccc2)cc1 | 3%
CC(NC(=O)c1ccccc1)C(=O)OCC(=O)N1c2ccccc2Sc2ccccc21 (configuration not stated) | -15%
CCOC(=O)Cc1csc(NS(=O)(=O)c2ccccc2)n1 | 0%
Cc1ccc(C(NC(=O)N2CCOCC2)C(Cl)(Cl)Cl)cc1F (configuration not stated) | -1%
O=C1C(SCCO)=C(SCCO)C(=O)c2ccccc21 | 2.8µM*!
O=C1CS/C(=N\C(=O)N2c3ccccc3Sc3ccccc32)N1 | -16%
CCCCCCCC(=O)N/N=C/c1ccc(Br)cc1 | -10%
COc1ccc(C(=O)N=C2CCC(C#N)=C3c4cc(OC)c(OC)cc4CCN23)cc1 | ?
NC(=NCCc1ccc(Cl)cc1)NS(=O)(=O)c1ccc(F)cc1 | 1%
CCc1c(C)nc2[nH]nc(-c3ccccc3C)n2c1=O | -15%

The final five compounds of the part above open the next one.
SMILES | HPGD block
O=C1CS/C(=N\C(=O)N2c3ccccc3Sc3ccccc32)N1 | -16%
CCCCCCCC(=O)N/N=C/c1ccc(Br)cc1 | -10%
COc1ccc(C(=O)N=C2CCC(C#N)=C3c4cc(OC)c(OC)cc4CCN23)cc1 | ?
NC(=NCCc1ccc(Cl)cc1)NS(=O)(=O)c1ccc(F)cc1 | 1%
CCc1c(C)nc2[nH]nc(-c3ccccc3C)n2c1=O | -15%
CCC12CC3CC(C1)CC(C(=O)O)(C3)C2 | -3%
Cc1cc(C)nc(SCCC(=O)Nc2ccccc2)n1 | 0%
CCc1ccc(N2C(=O)CC(NNc3nc4ccccc4s3)C2=O)cc1 (configuration not stated) | -11%
Cc1onc(-c2ccccc2Cl)c1C(=O)Nc1cccc(-c2nc3ncccn3c2C)c1 | ?
CCOC(=O)c1c(C)[nH]c(C)c1C(=O)COC(=O)C1CCCN1S(=O)(=O)c1ccccc1F (configuration not stated) | -11%
O=C1CCCN1C(=O)CCC(=O)N1CCCC1=O | -2%
c1ccc2c(-c3nc(C4CCCCC4)no3)cc(-c3ccncc3)nc2c1 | ?
Cc1nc(N(C)C)c2sc(=S)n(C)c2n1 | -24%
COc1ccc(-c2nc(CS(=O)(=O)CC(=O)NCCc3cc(OC)ccc3OC)c(C)o2)cc1 | -27%
COc1ccc(C(=O)Oc2cc(C)[nH]c(=O)c2[N+](=O)[O-])cc1 | -15%
N#CC(C#N)=C1C=CC=CN1/C(=C\c1ccco1)C(=O)c1ccccc1 | 22µM*
Cc1cc(C)nc(SCc2ccc(C(=O)NNC(=O)Nc3cccc(Cl)c3)cc2)n1 | -31%
CS(=O)(=O)c1ccc2nc(NC(=O)Oc3ccccc3)sc2c1 | -21%
Cn1c(=O)cnc2cnc(Oc3ccccc3)nc21 | -8%
COc1ccc(-c2cc(C(F)(F)F)n3ncc(C(=O)NCC4CCCO4)c3n2)cc1OC (configuration not stated) | -19%
CCOC(=O)CSc1ncc(-c2ccccc2)nn1 | -18%
COc1ccccc1NC(=O)CN1C(=O)C(C)Oc2ccccc21 (configuration not stated) | -11%
COc1ccc(-c2cn3cccnc3n2)cc1NC(=O)C1CC1 | -19%
CCOc1c(Cl)cnn(-c2ccc(C)cc2)c1=O | -1%
Cc1nn(CC(N)=O)c(=O)c2ccccc12 | -11%
CC1=C(C(=O)OC(C)C)C(c2cncc(-c3ccc(F)cc3)c2)C(C#N)=C(N)O1 (configuration not stated) | -13%
O=C(Nc1ccc(-c2nc3cccnc3s2)cc1)C1CCCO1 (configuration not stated) | ?
COc1ccc(CCNS(=O)(=O)c2ccc(C(=O)NCc3ccco3)cc2)cc1OC | -8%
COc1ccccc1N1CCN(c2nc(-c3ccccc3)cc(C(F)(F)F)n2)CC1 | -9%
CC(NC(=O)c1ccccc1Cl)c1nnc(SCC(=O)Nc2ccc(C(=O)O)cc2)n1C (configuration not stated) | 3%
CCCNS(=O)(=O)c1ccc(CCC(=O)N2CCN(CC)CC2)cc1 | -11%
COc1ccc(-c2nn3c(-c4ccco4)nnc3s2)cc1OC | ?
CCCCCCOC(=O)C(C#N)c1nc2ccccc2nc1N1CCN(C)CC1 (configuration not stated) | -18%
COC(=O)[C@@]1(Cc2ccc(F)cc2)[C@H]2c3cc(C(=O)N4CCCC4)n(Cc4ccc(OC(F)(F)F)cc4)c3C[C@H]2CN1C(=O)c1ccccc1 | -21%
CCCCc1nc2c(c3c1C[C@H](C)OC3)CN(C(=O)C1CC1)CC2 | -1%
CCOC(=O)C(C(=O)OCC)C(Nc1ccccc1)c1ccccc1 (configuration not stated) | -6%
O=C(O)C1C(c2ccccc2)C(C(=O)OCCCO)C1c1ccccc1 (configuration not stated) | -3%
O=C(NCc1cccs1)c1cnc2ccccn2c1=O | ?
O=C(NNc1nc(-c2ccc(Cl)cc2)cs1)c1ccco1 | -12%
CCOC(=O)c1ccc(NC(=O)N2CCN(Cc3cccc(F)c3)CC2)cc1 | -2%
CS(=O)(=O)N(CC(=O)NCC1CCCO1)c1cc(Cl)cc(Cl)c1 (configuration not stated) | -5%
CS(=O)(=O)c1ccc(N)cc1 | 3%
CCN(CC)C(=O)CSc1nnc2sc3ccccc3n12 | -10%
O=c1oc2ccc(Br)cc2cc1S(=O)(=O)c1ccc(F)cc1 | -6%
N/C(=N\OC(=O)c1ccccc1Cl)c1cccnc1 | ?
CC(=O)c1c(C)nc(C)nc1NC(=O)C(C)C | -13%
Cn1c(NC(=O)c2ccc(S(=O)(=O)N3CCOCC3)cc2)cc(=O)n(C)c1=O | -4%
CCOc1ccc(-c2cc(C(=O)O)c3ccccc3n2)c(OCC)c1 | -10%
CCOc1ccccc1N1C(=O)CC(Sc2ncccc2C(=O)O)C1=O (configuration not stated) | -7%
O=C(C1CCCN(Cc2ccccc2C(F)(F)F)C1)N1CCCCC1 (configuration not stated) | -22%
COCCSc1nnc(NC(=O)Cc2ccccc2OC)s1 | -16%
COc1ccc(S(=O)(=O)NCC(c2cccnc2)N2CCN(c3ccc(F)cc3)CC2)cc1C (configuration not stated) | -1%
COc1ccc(S(=O)(=O)Nc2cc(C)ccn2)cc1OC | -9%
Nc1ccc(C(=O)OCC(=O)NC2CCCc3ccccc32)cc1[N+](=O)[O-] (configuration not stated) | -11%
CC(=O)c1cc2c(cc1NS(=O)(=O)c1ccccc1)OCO2 | -9%
COC(=O)c1c(NC(=O)CN2CCN(C(=O)c3ccco3)CC2)c2cc(C)ccc2n1C | ?
COc1ccc(NC(=O)COC(=O)c2c(C)noc2C)c(OC)c1 | -8%
COC(=O)Cc1c(C)c2ccc(OCC(C)=O)c(C)c2oc1=O | ?
Clc1ccc2c(NCCNc3ccnc4cc(Cl)ccc34)ccnc2c1 | -1%
CC(/C=N/NC(=O)Cc1cccn1C)=C\c1ccco1 | ?
Cc1c(Cc2ccc3c(c2)OCO3)sc(NC(=O)c2ccccc2)c1C(N)=O | ?
NC(=S)N/N=C/c1ccc(-c2cc(Cl)ccc2Cl)o1 | ?
CCOC(=O)N1CCN(C(=O)c2ccc3c(SCC(=O)O)c4c(nc3c2)CCCC4)CC1 | -4%
CC(=O)OCCOc1nc(N(C)C)nc(N(C)C)n1 | -6%
CCOCCCNC(=O)c1cccs1 | -7%

4 of the compounds above, with the structure last.
| HPGD block | compound |
| --- | --- |
| -13% | Cc1ccc(N(CC(=O)Nc2ccc(F)c(Cl)c2)S(=O)(=O)c2c(C)noc2C)cc1 |
| -17% | Cc1ccc(NC(=O)c2cccc(OC(F)F)c2)c(OC(F)F)c1 |
| ? | CCOc1ccc(/C=N/OCC(=O)Nc2ccc(OCc3ccccc3)cc2)cc1OC |
| -18% | CCOC(=O)c1cn(CC)c2ccc(S(=O)(=O)N3CC(C)CC(C)C3)cc2c1=O (configuration not stated) |

Single entries from the results shown:
`CCOC(=O)N1CCN(C(=O)c2ccc3c(SCC(=O)O)c4c(nc3c2)CCCC4)CC1` in HPGD block is listed with -4%
`Clc1ccc2c(NCCNc3ccnc4cc(Cl)ccc34)ccnc2c1` in HPGD block is listed with -1%
`CC(=O)c1cc2c(cc1NS(=O)(=O)c1ccccc1)OCO2` in HPGD block is listed with -9%
`COc1ccc(NC(=O)COC(=O)c2c(C)noc2C)c(OC)c1` in HPGD block is listed with -8%

The list goes on.
SMILES | HPGD block
COc1ccc(-c2cc(OC)c3c(C)oc(C)c3c(=O)c2)cc1OC | 28µM*
COC(=O)c1[nH]c2ccc(F)cc2c1NC(=O)C1=COCCO1 | -13%
N#C/C(=C(/O)COC(=O)CCC1CCCCC1)c1nc2ccccc2[nH]1 | -16%
COc1ccc(Nc2nnc(-c3ccccc3)c3ccccc23)cc1C(=O)N1CCCCC1 | ?
CCOc1ccccc1N1CCN(c2nc(N)c(C#N)c(CC#N)c2C#N)CC1 | -30%
OC(CCN1CCCC1)(c1ccccc1)C1CCCCC1 (configuration not stated) | 1%&-1%
O=C(Cn1nnc(-c2ccccc2)n1)NCc1ccccc1 | -12%
O=C(NC(c1ccccc1)C(Cl)Cl)c1ccccc1 (configuration not stated) | ?
C=CCSc1nc(C)c(CC=C)c(=O)[nH]1 | ?
CCCNC(=O)c1ccccc1NC(=O)c1ccc(CSc2ccccc2)cc1 | ?
C=CCc1ccc(OCCCOc2ccc(C)cc2OC)c(OC)c1 | -20%
COc1ccc(OC)c(/C=N/Nc2nncn2/N=C/c2cc(OC)ccc2OC)c1 | -10%
Cc1ccc(-n2c(C)nc3ncnc(-c4ccccc4)c32)cc1 | -7%
COc1ccc(S(=O)(=O)N(CC(=O)NC2CC2)c2ccc(C)cc2)cc1OC | -15%
O=C(CNC(=O)c1cccc(Br)c1)NCCc1nc2ccccc2[nH]1 | -7%
O=C(CSc1ccccc1Cl)N1CCC(c2nc3ccccc3s2)CC1 | -4%
Cc1[nH]n(-c2ccccc2)c(=O)c1C=Nc1cccc2cccnc12 | -19%
O=c1cc2c(nn1Cc1ccc(Cl)cc1Cl)-c1ccccc1CC2 | -9%
O=C(C(=C1NCCN1)n1cncn1)c1ccccc1 | -1%
CCOC(=O)c1sc(NC(=O)c2c(OC)cccc2OC)nc1C | -12%
CCCCn1c(N2CCC(Cc3ccccc3)CC2)nc2c1c(=O)[nH]c(=O)n2C | -1%
CC(C)C(O)(C#CCN1CCCCC1)c1ccccc1 (configuration not stated) | 5%
